A1 apoptosis 2 = A1 inhibition read as caspase activation; MEF A1-2A-BIM cells, caspase-Glo luminescence, 3 h; percent of clofoctol response, DMSO zero; caspase activation, % (concentration not given with the values); 24,000 tested, under 10 active; AID 2465; in the data active = caspase activation above about 5.9%;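 note: wells of about 30 µL received 50 nL stock; the first replicate is given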
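Material: A1-2A-BIM-expressing MEF cells. Buffer or medium: RPMI-1640 plus 10% FBS. Incubation: cells settled overnight, compound exposure 3 h at 37 °C, 5% CO2. Signal: Caspase-Glo 3/7 luminescence, 1 h at room temperature.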
Numbers without * were called inactive. A portion of the library; count on the stated rates, not on these rows.

SMILES	A1 apoptosis 2
C[C@@H]1CCCCO[C@H](CN(C)S(=O)(=O)c2cccs2)[C@@H](C)CN([C@H](C)CO)C(=O)c2cc(NS(=O)(=O)c3ccc(F)cc3)ccc2O1	-0.5
C[C@H](CO)N1C[C@H](C)[C@H](CN(C)Cc2ccc(C(=O)O)cc2)Oc2c(NC(=O)C3CCOCC3)cccc2C1=O	0.6
C[C@@H]1CN([C@H](C)CO)C(=O)c2cc(NC(=O)CCC(F)(F)F)ccc2O[C@@H](C)CCCCO[C@H]1CN(C)S(=O)(=O)c1ccc(F)cc1	0.4
C[C@H]1CCCCO[C@@H](CN(C)Cc2ccccc2)[C@@H](C)CN([C@@H](C)CO)C(=O)c2cc(NC(=O)Nc3ccc4c(c3)OCO4)ccc2O1	0.6
COc1ccc(S(=O)(=O)Nc2ccc3c(c2)CC(=O)N([C@H](C)CO)C[C@H](C)[C@@H](CN(C)Cc2ccccc2)O3)cc1	-0.1
C[C@@H]1CN([C@H](C)CO)C(=O)Cc2cc(NS(=O)(=O)c3cn(C)cn3)ccc2O[C@@H]1CN(C)C(=O)Nc1ccccc1	0.9
C[C@@H]1CN([C@@H](C)CO)C(=O)c2cc(NC(=O)Nc3ccc4c(c3)OCO4)ccc2O[C@H]1CN(C)C(=O)NC1CCCCC1	-0.1
C[C@H](CO)N1C[C@H](C)[C@H](CN(C)CC2CCCCC2)Oc2ccc(NC(=O)NC3CCCCC3)cc2C1=O	-0.6
C[C@@H]1CCCCO[C@@H](CN(C)C(=O)Nc2ccc(C(F)(F)F)cc2)[C@H](C)CN([C@H](C)CO)C(=O)c2cc(NC(=O)C3CCCCC3)ccc2O1	0.2
C[C@@H]1CCCCO[C@@H](CN(C)Cc2ccc(C(=O)O)cc2)[C@H](C)CN([C@H](C)CO)C(=O)c2cc(NC(=O)C3CCCCC3)ccc2O1	-0.2
C[C@@H]1CN([C@H](C)CO)C(=O)Cc2cc(NC(=O)C3CC3)ccc2O[C@H]1CN(C)S(=O)(=O)c1ccc(Cl)cc1	-0.4
COc1ccc(S(=O)(=O)Nc2ccc3c(c2)C(=O)N([C@H](C)CO)C[C@H](C)[C@H](CN(C)C)OCCCC[C@H](C)O3)cc1	-1.0
C[C@@H]1CN([C@H](C)CO)C(=O)c2cc(NC(=O)c3ccccc3)ccc2O[C@@H](C)CCCCO[C@@H]1CN(C)S(C)(=O)=O	0.0
C[C@@H]1CCCCO[C@@H](CN(C)Cc2ccc3c(c2)OCO3)[C@@H](C)CN([C@H](C)CO)C(=O)c2cc(NC(=O)CCCN(C)C)ccc2O1	1.8
C[C@@H]1CN([C@@H](C)CO)C(=O)c2cccc(NS(=O)(=O)c3cn(C)cn3)c2O[C@@H]1CN(C)C(=O)Nc1ccc(C(F)(F)F)cc1	0.0
Cc1ccc(S(=O)(=O)N(C)C[C@@H]2Oc3ccc(NC(=O)Cc4ccccc4)cc3C(=O)N([C@H](C)CO)C[C@H]2C)cc1	-1.1
C[C@H](CO)N1C[C@H](C)[C@@H](CN(C)C(=O)Nc2ccc(F)cc2)Oc2ccc(NS(=O)(=O)c3cccs3)cc2CC1=O	0.7
C[C@@H]1CCCCO[C@H](CN(C)C(=O)C2CCCCC2)[C@H](C)CN([C@H](C)CO)C(=O)c2cc(N(C)C)ccc2O1	-0.4
C[C@@H]1CCCCO[C@H](CN(C)C(=O)CCCN(C)C)[C@@H](C)CN([C@H](C)CO)C(=O)c2cc(NS(=O)(=O)c3ccc(Cl)cc3)ccc2O1	-1.4
Cc1ccc(S(=O)(=O)N(C)C[C@@H]2OCCCC[C@@H](C)Oc3ccc(NS(=O)(=O)c4ccc(Cl)cc4)cc3C(=O)N([C@H](C)CO)C[C@@H]2C)cc1	0.2
O=C(N/N=C/c1ccc2c(c1)CCO2)c1ccccc1O	-5.3
C[C@@H]1CN([C@H](C)CO)C(=O)c2cc(NC(=O)C3CCCCC3)ccc2O[C@@H](C)CCCCO[C@@H]1CN(C)C(=O)c1ccncc1	1.1
COC(=O)c1ccc(/C=N/NC(=O)c2ccccn2)cc1	-11
C[C@@H]1CCCCO[C@@H](CN(C)C(=O)C2CCCCC2)[C@@H](C)CN([C@H](C)CO)C(=O)c2cc(NC(=O)Cc3ccccc3)ccc2O1	1.2
C[C@H](CO)N1C[C@H](C)[C@H](CN(C)C(=O)Nc2ccc3c(c2)OCO3)OCCCC[C@H](C)Oc2ccc(NC(=O)NC3CCCCC3)cc2C1=O	0.0
Cc1noc(C)c1NC(=O)Nc1cccc2c1O[C@H](CN(C)Cc1ccc(Cl)c(Cl)c1)[C@@H](C)CN([C@@H](C)CO)C2=O	0.1
C[C@H](CO)N1C[C@H](C)[C@H](CN(C)C(=O)Nc2ccc(F)cc2)Oc2ccc(NC(=O)CCN3CCOCC3)cc2CC1=O	-1.2
COc1ccc(CN(C)C[C@H]2Oc3ccc(NC(=O)Nc4ccc(OC)cc4)cc3CC(=O)N([C@@H](C)CO)C[C@@H]2C)cc1	0.3
C[C@H]1CN([C@@H](C)CO)C(=O)Cc2cc(NC(=O)Nc3ccccc3)ccc2O[C@H]1CN(C)Cc1ccc(C(=O)O)cc1	1.2
C[C@@H]1CN([C@H](C)CO)C(=O)c2cc(NC(=O)c3ccccc3)ccc2O[C@@H](C)CCCCO[C@@H]1CN(C)Cc1ccccc1	0.3
C[C@@H]1CCCCO[C@@H](CN(C)C(=O)c2ccccc2)[C@@H](C)CN([C@H](C)CO)C(=O)c2cc(N(C)C)ccc2O1	0.4
C[C@@H]1CN([C@@H](C)CO)C(=O)c2cccc(NS(C)(=O)=O)c2O[C@@H]1CN(C)Cc1ccc(Cl)c(Cl)c1	0.6
C[C@@H]1CN([C@H](C)CO)C(=O)c2cccc(NS(C)(=O)=O)c2O[C@H]1CN(C)C(=O)Nc1ccccc1	-1.3
CC(C)NC(=O)Nc1ccc2c(c1)CC(=O)N([C@@H](C)CO)C[C@@H](C)[C@H](CN(C)Cc1ccc(-c3ccccc3)cc1)O2	1.0
Cc1ccc(S(=O)(=O)N(C)C[C@@H]2OCCCC[C@H](C)Oc3ccc(NC(=O)NC4CCCCC4)cc3C(=O)N([C@H](C)CO)C[C@H]2C)cc1	0.7
Cc1noc(C)c1NC(=O)Nc1ccc2c(c1)CC(=O)N([C@@H](C)CO)C[C@H](C)[C@H](CN(C)Cc1ccc(C(=O)Nc3ccccc3N)cc1)O2	-1.7
C[C@H](CO)N1C[C@H](C)[C@@H](CN(C)Cc2ccc(C(=O)Nc3ccccc3N)cc2)Oc2ccc(NC(=O)CCN3CCOCC3)cc2C1=O	-0.5
C[C@@H]1CN([C@@H](C)CO)C(=O)c2cccc(NC(=O)Nc3cccc4ccccc34)c2O[C@H]1CN(C)C(=O)Nc1ccc(F)cc1	-0.6
C[C@H](CO)N1C[C@H](C)[C@@H](CN(C)Cc2ccc3c(c2)OCO3)Oc2c(NC(=O)C3CCOCC3)cccc2C1=O	-0.8
C[C@H](CO)N1C[C@H](C)[C@H](CN(C)Cc2ccc(C(=O)Nc3ccccc3N)cc2)Oc2ccc(NC(=O)Nc3ccccc3)cc2C1=O	-0.8
Cc1noc(C)c1S(=O)(=O)Nc1ccc2c(c1)C(=O)N([C@H](C)CO)C[C@H](C)[C@H](CN(C)C(=O)CCCN(C)C)OCCCC[C@H](C)O2	-0.1
COc1ccc(CN(C)C[C@@H]2OCc3cnnn3CCCC(=O)N([C@@H](C)CO)C[C@@H]2C)cc1	-0.7
CC(C)NC(=O)Nc1ccc2c(c1)C(=O)N([C@@H](C)CO)C[C@@H](C)[C@H](CN(C)Cc1ccc(C(F)(F)F)cc1)O2	0.0
C[C@@H]1CN([C@@H](C)CO)C(=O)Cc2cc(NC(=O)c3ccncc3)ccc2O[C@@H]1CN(C)S(=O)(=O)c1ccc(F)cc1	-2.1
COc1ccc(NC(=O)Nc2ccc3c(c2)C(=O)N([C@@H](C)CO)C[C@H](C)[C@@H](CN(C)S(=O)(=O)c2cccs2)O3)cc1	1.2
C[C@H]1CN([C@@H](C)CO)C(=O)c2cc(NS(=O)(=O)c3ccc(F)cc3)ccc2O[C@H]1CN(C)C(=O)NC1CCCCC1	0.5
Cc1noc(C)c1NC(=O)N(C)C[C@@H]1OCCCC[C@@H](C)Oc2ccc(NS(=O)(=O)c3cccs3)cc2C(=O)N([C@@H](C)CO)C[C@H]1C	0.6
C[C@@H]1CCCCO[C@H](CN(C)C(=O)Nc2ccc(F)cc2)[C@H](C)CN([C@H](C)CO)C(=O)c2cc(N(C)C)ccc2O1	0.3
C[C@H]1CCCCO[C@H](CN(C)S(=O)(=O)c2ccc(F)cc2)[C@@H](C)CN([C@@H](C)CO)C(=O)c2cc(NC(=O)Nc3cccc4ccccc34)ccc2O1	-0.4
CCO[C@@H]1OC(C(=O)Nc2ccccc2)=C[C@H](c2csc3ccccc23)[C@H]1CCCO	0.0
Cc1noc(C)c1NC(=O)Nc1cccc2c1O[C@@H](CN(C)Cc1ccccc1)[C@H](C)CN([C@H](C)CO)C2=O	-2.1
Cc1noc(C)c1NC(=O)N(C)C[C@H]1Oc2ccc(NC(=O)CCCCCC(=O)Nc3ccccc3N)cc2CC(=O)N([C@H](C)CO)C[C@H]1C	0.0
COCCOC(=O)N1C(=O)[C@@]2(c3cc(C#Cc4ccc(OC)cc4)ccc31)[C@H](C(=O)N1CCCCCCC1)[C@H]1C(=O)O[C@H](c3ccccc3)[C@H](c3ccccc3)N1[C@@H]2c1ccc(O)cc1	-0.6
C[C@@H]1CN([C@H](C)CO)C(=O)c2cc(NS(=O)(=O)c3ccc(F)cc3)ccc2O[C@@H]1CN(C)C(=O)Nc1cccc2ccccc12	-1.0
Cc1ccc(S(=O)(=O)N(C)C[C@@H]2Oc3ccc(NC(=O)CCCN(C)C)cc3CC(=O)N([C@H](C)CO)C[C@@H]2C)cc1	1.2
COc1ccc(S(=O)(=O)N(C)C[C@@H]2OCCCC[C@@H](C)Oc3ccc(NC(=O)C4CCCCC4)cc3C(=O)N([C@@H](C)CO)C[C@H]2C)cc1	1.4
CNC[C@@H]1Oc2ccc(NS(=O)(=O)c3ccccc3)cc2CC(=O)N([C@@H](C)CO)C[C@@H]1C	-1.3
C[C@@H]1CCCCO[C@H](CN(C)S(C)(=O)=O)[C@@H](C)CN([C@H](C)CO)C(=O)c2cc(NC(=O)NC3CCCCC3)ccc2O1	0.3
CC(C)NC(=O)Nc1ccc2c(c1)C(=O)N([C@@H](C)CO)C[C@H](C)[C@@H](CN(C)Cc1ccc(C(F)(F)F)cc1)O2	-0.9
C[C@@H]1CCCCO[C@H](CN(C)CC2CCCCC2)[C@@H](C)CN([C@H](C)CO)C(=O)c2cc(NS(=O)(=O)c3ccccc3)ccc2O1	0.1

Further entries follow:
SMILES	A1 apoptosis 2
C[C@@H]1CCCCO[C@@H](CN(C)C(=O)c2ccccc2)[C@H](C)CN([C@@H](C)CO)C(=O)c2cc(NC(=O)c3ccccc3)ccc2O1	-1.0
CC(C)NC(=O)Nc1cccc2c1O[C@H](CN(C)S(=O)(=O)c1cccs1)[C@H](C)CN([C@H](C)CO)C2=O	1.4
C[C@H]1CN([C@@H](C)CO)C(=O)c2cc(NC(=O)c3ccncc3)ccc2O[C@@H]1CN(C)C	0.7
C[C@@H]1CN([C@H](C)CO)C(=O)c2cc(NC(=O)Nc3cccc4ccccc34)ccc2O[C@@H](C)CCCCO[C@@H]1CN(C)Cc1ccc2c(c1)OCO2	-0.1
C[C@@H]1CCCCO[C@H](CN(C)Cc2ccc3c(c2)OCO3)[C@@H](C)CN([C@H](C)CO)C(=O)c2cc(NC(=O)Nc3ccc4c(c3)OCO4)ccc2O1	0.5
C[C@@H]1CCCCO[C@@H](CN(C)C(=O)c2ccncc2)[C@H](C)CN([C@@H](C)CO)C(=O)c2cc(N(C)C)ccc2O1	-0.4
O=C(CCCCC(=O)N/N=C/c1coc2ccccc2c1=O)NO	1.1
CNC[C@@H]1Oc2c(NC(=O)c3ccc(-c4nccs4)cc3)cccc2C(=O)N([C@H](C)CO)C[C@@H]1C	-0.9
C[C@@H]1CCCCO[C@@H](CN(C)C(=O)Nc2ccc(C(F)(F)F)cc2)[C@@H](C)CN([C@H](C)CO)C(=O)c2cc(NC(=O)Nc3ccccc3)ccc2O1	0.2
CCOc1cc(OCC)cc(C(=O)N[C@@H](Cc2ccc(N=[N+]=[N-])cc2)C(=O)OC)c1	-0.1
C[C@H]1CN([C@@H](C)CO)C(=O)c2cc(NC(=O)CCCCCC(=O)Nc3ccccc3N)ccc2O[C@@H]1CN(C)C	0.2

Not a retest: an excerpt of the list.
SMILES	A1 apoptosis 2
O=C(CCCCC(=O)N/N=C/c1coc2ccccc2c1=O)NO	1.1
CNC[C@@H]1Oc2c(NC(=O)c3ccc(-c4nccs4)cc3)cccc2C(=O)N([C@H](C)CO)C[C@@H]1C	-0.9
C[C@@H]1CCCCO[C@@H](CN(C)C(=O)Nc2ccc(C(F)(F)F)cc2)[C@@H](C)CN([C@H](C)CO)C(=O)c2cc(NC(=O)Nc3ccccc3)ccc2O1	0.2

A draw from above in order of molecular weight, largest number first:
SMILES	A1 apoptosis 2
C[C@H]1CCCCO[C@H](CN(C)S(=O)(=O)c2ccc(F)cc2)[C@@H](C)CN([C@@H](C)CO)C(=O)c2cc(NC(=O)Nc3cccc4ccccc34)ccc2O1	-0.4
C[C@@H]1CCCCO[C@H](CN(C)S(C)(=O)=O)[C@@H](C)CN([C@H](C)CO)C(=O)c2cc(NC(=O)NC3CCCCC3)ccc2O1	0.3
C[C@@H]1CN([C@H](C)CO)C(=O)c2cccc(NS(C)(=O)=O)c2O[C@H]1CN(C)C(=O)Nc1ccccc1	-1.3
O=C(N/N=C/c1ccc2c(c1)CCO2)c1ccccc1O	-5.3

Screening data from PubChem.
